Screening data (PubChem)
VACV Venus inh – vaccinia inhibition (Venus reporter). AID 720580. Potency, µM (series often up to 36.5 µM), inactives show top-dose activity change, negative = inhibition, actives largely listed as inhibitors. Vaccinia virus Venus reporter expression, fluorescence. actives 0.46% (n = 330,000); active means well fitted inhibition curve with a large enough effect; inconclusive means small, poorly fitted or top-dose-only effect; inactive means no such curve, though single readings can be large or run the other way; tested in A549 cells; also: nearly all actives have a fitted effect of over 30% in size; inactives centre near -10
VACV mCherry inh – inhibitors of vaccinia virus infection (mCherry reporter signal). Vaccinia virus mCherry reporter infection, fluorescence; about a quarter of the inactives have no number. Potency, µM (doses to about 36.5 µM), without a hit: at the top dose activity change, negative = inhibition, usual class: inhibitors. actives 0.63% (n = 310,000). AID 720579; active = well fitted inhibition curve with a large enough effect; inconclusive = small, poorly fitted or top-dose-only effect; inactive = no such curve, though single readings can be large or run the other way; tested in A549 cells; also: nearly all actives have a fitted effect of over 35% in size; inactives centre near -10
The depositor's hits bear a star; i = inactive; ? = inconclusive; / = no result given; & = joins results of further samples; [ ] = another dose, or the depositor's remark. % is scaled to controls: 0 for no effect and ±100 for the full control effect; potency is read from the fitted curve at half-maximal effect.

| Compound | VACV Venus inh | VACV mCherry inh |
| --- | --- | --- |
| CC(=O)c1c(C)[nH]c(C(=O)OCC(=O)Nc2cccc(S(=O)(=O)N3CCCC3)c2)c1C | -24% | -6% |
| CCOC(=O)c1c(NC(=O)CSc2nnnn2C)sc(CC)c1C | -20% | -12% |
| COc1ccc(NC(=O)Nc2cccc3c2O[C@H](CN(C)S(=O)(=O)c2ccc(F)cc2)[C@@H](C)CN([C@H](C)CO)C3=O)cc1 | -19% | 2% |
| COc1ccc(/C=N/NC(=O)C(=O)N2CCCC2)cc1OC | -5% | -8% |
| CCNC(=S)N/N=C(\C)c1cccc([N+](=O)[O-])c1 | -24% | -7% |
| CCCCCCCCC(NC(=O)c1ccc(C#N)cc1)C(=O)NCCC (stereo not given) | -16% | -2% |
| CCOCCCNC(=O)c1ccc2c(c1)N=C(CC)c1cc(Br)ccc1S2 | ? | -21% |
| COCCCN1C(=O)c2ccc(C(=O)OCC(=O)NCc3ccccc3OC)cc2C1=O | -18% | i |
| C[C@]12CCC(=O)C=C1CC[C@@H]1[C@@H]2[C@@H](O)C[C@@]2(C)[C@H]1CC[C@]2(O)C(=O)CO | -19%&-16% | i |
| COC(=O)/C(C#N)=C/c1c(Oc2cccc(C)c2)nc2ccccn2c1=O | -2% | i |
| Cc1ccc(CNC(=O)C(C)n2ccc3cc(S(=O)(=O)N4CCCC4)ccc32)cc1 (stereo not given) | -23% | i |
| COC(=O)c1[nH]c2ccc(Cl)cc2c1NC(=O)CCN1CCOCC1 | -24% | / |
| O=C(O)C1CCN(C(=O)COc2ccc3c(c2)oc(=O)c2ccccc23)CC1 | -4% | 3% |
| Cc1ccc(C(=O)N(CN2CCCC2=O)c2ccccc2)cc1 | -12% | i |
| Cc1oc(-c2cc(Cl)cc(Cl)c2)cc1C(=O)NCCc1ccccc1 | -11% | -11% |

The list goes on, starting with the last 3 of the part before.
| Compound | VACV Venus inh | VACV mCherry inh |
| --- | --- | --- |
| O=C(O)C1CCN(C(=O)COc2ccc3c(c2)oc(=O)c2ccccc23)CC1 | -4% | 3% |
| Cc1ccc(C(=O)N(CN2CCCC2=O)c2ccccc2)cc1 | -12% | i |
| Cc1oc(-c2cc(Cl)cc(Cl)c2)cc1C(=O)NCCc1ccccc1 | -11% | -11% |
| C=CCn1c(C)nnc1SCC(=O)Nc1ccccc1C(=O)NC1CC1 | -1% | -14% |
| CCCn1c(C(O)c2cccc(OC)c2)nc2ccccc21 (stereo not given) | -18% | -4% |
| C/C(=N\NC(=O)CCc1ccc(S(=O)(=O)N2CCOCC2)cc1)c1ccccc1Cl | -2% | -2% |
| CCC(C)(C)NC(=O)CN(Cc1ccc2c(c1)OCO2)C(=O)CCC(=O)Nc1ccccn1 | -15% | / |
| CCC(=O)OCOc1ccc(/C=C2/CCC(CN(C)C)C2=O)cc1 (stereo not given) | -14% | i |
| COc1cc(CCC(=O)OCC(=O)Nc2ccc(F)cc2F)cc(OC)c1OC | -2% | -15% |
| NC(=S)Nc1cccc2[nH]ccc12 | -17% | -3% |
| O=C1c2ccccc2C(Nc2ccc3c(c2)OCO3)N1Cc1ccc2c(c1)OCO2 (stereo not given) | 8% | 15% |
| O=C(CC1(O)C(=O)Nc2ccccc21)c1ccc(-n2cnnn2)cc1 (stereo not given) | 9% | -21% |
| COCC(CN1CCN(C2=NS(=O)(=O)c3ccccc32)CC1)OC(=O)c1ccc(OC)cc1 (stereo not given) | -17% | -5% |
| CSc1ncccc1C(=O)NCC(c1ccco1)N1CCCCC1 (stereo not given) | -8% | -12% |
| CCn1nc(C)cc1C(=O)Sc1cccc(Cl)c1 | -6%[7.34 µM] | i[7.34 µM] |
| CC1CCCCC1NS(=O)(=O)CCNC(=O)c1ccccc1 (stereo not given) | -5% | -10% |
| CC12CCC(C(=O)N(CC(O)CN3CCCCC3)C1=O)C2(C)C (stereo not given) | -9% | i |
| Cn1cc(Br)c(-c2cccc(NC(=O)CCC(=O)O)c2)n1 | -2%[7.34 µM] | i[7.34 µM] |
| Cc1cccc(NC(=O)CSc2ccc(-c3ccco3)nn2)c1 | -18% | -2% |
| C[N+](C)(C)C[C@H](O)CC(=O)[O-] | -5% | 4% |
| Nc1ccc(C(=O)OCC(=O)NC2CCS(=O)(=O)C2)cc1[N+](=O)[O-] (stereo not given) | 0% | -15% |
| CC(=O)N(C)c1nnc(-c2ccccn2)s1 | -13% | -5% |
| CCN(CC)c1ccc(/C=N/N2CCN(Cc3ccc(C)cc3C)CC2)c(O)c1 | -7% | -12% |
| NC(=O)c1sc(-c2ccsc2)cc1NS(=O)(=O)c1ccc(C(F)(F)F)cc1 | -6% | i |
| COC(=O)[C@@H]1C[C@H]2CC[C@H](O)C[C@H]2N1Cc1ccc(Cl)cc1 | -5% | -1% |
| CC(Cc1ccccc1)C(=O)NCCO (stereo not given) | -10% | i |
| N#Cc1ccc(S(=O)(=O)NCC(=O)OCC(=O)N2CCCC2=O)cc1 | -8% | -11% |
| Cc1ccc(S(=O)(=O)N2CCN(C(=O)C3Cc4ccccc4CN3C(=O)c3ccco3)CC2)cc1 (stereo not given) | -13% | / |
| CCn1c(SCC(=O)NCC2CCCO2)nnc1-c1ccc(Cl)cc1 (stereo not given) | -18% | 0% |
| COc1ccc2ccc(=O)oc2c1CC(O)C(C)(C)O (stereo not given) | 3% | 40%[activator] |
| O=C1O[C@H](CO)[C@@H](O)[C@H](O)[C@H]1O | -7%&-17% | -1%&-20% |
| CN(C)c1ccc(/C=C(\NC(=O)c2ccccc2)C(=O)NCCN2CCOCC2)cc1 | 0% | -4% |
| CCOc1cccc(C(=O)Nc2ccc(NC(=O)c3ccc(Br)cc3)cc2)c1 | 4% | -3% |

Profiles from above. Screens in order: VACV Venus inh, VACV mCherry inh
Entry for `Cc1ccc(C(=O)N(CN2CCCC2=O)c2ccccc2)cc1` : -12%, i
Entry for `N#Cc1ccc(S(=O)(=O)NCC(=O)OCC(=O)N2CCCC2=O)cc1` : -8%, -11%
Entry for `CCn1nc(C)cc1C(=O)Sc1cccc(Cl)c1` : -6%[7.34 µM], i[7.34 µM]
Entry for `CCCCCCCCC(NC(=O)c1ccc(C#N)cc1)C(=O)NCCC` (stereo not given) : -16%, -2%
Entry for `Cc1ccc(S(=O)(=O)N2CCN(C(=O)C3Cc4ccccc4CN3C(=O)c3ccco3)CC2)cc1` (stereo not given) : -13%, /

Later entries
| Compound | VACV Venus inh | VACV mCherry inh |
| --- | --- | --- |
| CC(=O)c1ccc(OCC(=O)NCc2ccc(F)cc2)cc1 | -5% | -1% |
| Cc1cc(F)ccc1NC(=O)c1cc(S(=O)(=O)N2CCOCC2)cn1C | 3% | 6% |
| CCN(CC)c1ncnc2sc(C(=O)N3CCN(c4ccccc4)CC3)c(C)c12 | -24% | -2% |
| O=C(NCCC1=CCCCC1)c1ccc(F)c(S(=O)(=O)N2CCOCC2)c1 | -6% | -16%[1.46 µM] |
| COc1ccccc1-c1cc2c(c(OC)c1)OCCN(C(=O)Cn1nc(-c3ccccc3)c3ccccc3c1=O)C2 | -5% | i |
| CC[C@@H](C(=O)[C@@H](C)[C@@H](O)[C@H](C)[C@@H]1O[C@@H]([C@@H](CC)C(=O)O)CC[C@@H]1C)[C@H]1O[C@]2(C=C[C@@H](O)[C@]3(CC[C@@](C)([C@H]4CC[C@](O)(CC)[C@H](C)O4)O3)O2)[C@H](C)C[C@@H]1C | 11µM* | 2.5µM* |
| Cc1nn(CC(=O)Nc2ccc(N3CCOCC3)cc2)c(C)c1[N+](=O)[O-] | -10% | i |
| O=C(NCc1ccc(Cl)cc1)C(=O)NCC1OCCN1C(=O)c1ccc(Cl)cc1 (stereo not given) | -19% | i |
| CC(C)C[C@H]1CN([C@@H](Cc2ccccc2)CN2CCC[C@H]2CN2C(=O)C(=O)NC[C@@H]2Cc2ccc(O)cc2)C(=O)C(=O)N1CC1CCCCC1 | -11% | -13% |
| Fc1c(F)c(-n2nnc3ccccc32)c(F)c(F)c1Cl | 0% | -2% |
| Cc1cc(C)cc(-c2nnc(SCC(=O)c3c(N)n(C4CC4)c(=O)[nH]c3=O)o2)c1 | 1% | -11% |
| COc1ccc([N+](=O)[O-])cc1NC(=O)CSc1nc(C)cc(C)n1 | -2% | -19% |
| COC(=O)C1=Nc2ccccc2/C1=C\c1c(O)n(-c2ccc(OC)cc2)c(=O)[nH]c1=O | -8% | i |
| COc1ccc(NC(=O)c2cccc(Cn3cc(Br)cn3)c2)cn1 | -10% | -24% |
| O=C(Nc1ccon1)c1ccccc1Cl | -11% | i |
| O=C(O)CCC1NCC2CC1CN1CCCCC21 (stereo not given) | -22% | i |
| COC(=O)[C@H]1C[C@@H]1[C@H](NC(=O)OCc1ccccc1)c1ccccc1 | -5% | i |
| COc1ccccc1CNc1nc2cc(-c3sccc3C)sc2c(=O)n1C | -5% | 2% |
| O=C(Nc1cccnc1)c1cc2cc(Br)ccc2oc1=O | 6% | 0% |
| Cc1nc(N2CCCC2)ncc1C(=O)NCc1cccc(Cl)c1 | -7% | -3% |
| O=C1NCN(c2ccccc2)C12CCN(C(c1cc3ccccc3o1)c1nnnn1C1CCCC1)CC2 (stereo not given) | -12% | -5% |
| COc1ccccc1Cn1c(/C=C/c2ccccc2)nc2ccccc21 | -25% | -27% |
| O=C(N/N=C/c1ccc(OC(=O)c2ccc([N+](=O)[O-])cc2)cc1)c1cccnc1 | -7% | -7% |
| COc1c(C)cccc1C(=O)NCc1ccc2c(c1)OCO2 | -8% | -12% |
| CC(=O)N1c2ccc(F)c(F)c2C[C@H]1C | -14% | i |
| Clc1ccccc1OCc1nnc(-c2ccccc2)o1 | -9% | -4% |
| CCCCn1c(CNC(=O)C23CC4CC(CC(C4)C2)C3)nnc1SCC(=O)Nc1ccccc1 | -14% | -6% |
| CC(C)OC(=O)c1ccc(NC(=O)c2ccccc2)cc1 | -21% | -24% |
| O=C(CSc1ncccc1C(=O)O)c1ccccc1 | 1% | 18% |
| COc1ccc(-c2nc(Cn3c(=O)cc(C)c4c(C)nn(-c5ccccc5)c43)c(C)o2)cc1OC | -6% | -5% |
| COC(=O)c1cn(NC(=O)c2ccc([N+](=O)[O-])cc2Cl)c(=O)c2ccccc12 | -10% | -17% |
| Cc1ccc(C)c(NC(=O)Nc2cc3c(cc2N2CCCCC2)n(C)c(=O)n3C)c1 | -12%[7.34 µM] | -10%[7.34 µM] |
| COc1cccc(/C=C2\SC(=O)N(CCC(=O)NNC(=O)c3cccc(Cl)c3)C2=O)c1 | -7% | i |
| Cc1ccc(C)c(N2CCN(C(=O)c3cc(S(=O)(=O)N4CCOCC4)cn3C)CC2)c1 | -6% | 19% |
| CC1(C(=O)NS(=O)(=O)c2ccc(Cl)cc2)CCN1C(=O)Cc1ccsc1 (stereo not given) | 5% | i |
| CNc1cc(C(=O)O)nc2ccccc12 | -10% | 36%[activator] |
| CCC1CCCCN1C(=O)CSc1nc(N)c(NC(=O)c2ccc(OC)c(OC)c2)c(=O)[nH]1 (stereo not given) | 6% | -6% |
| CC(=O)c1cccc(NC(=O)c2cc(-n3cnnc3)ccc2Cl)c1 | -2% | / |
| COc1cccc(/C=N/Nc2nc3ccccc3n3cnnc23)c1O | ? | 4.5µM* |
| CCc1noc2nc(C)n(CC(=O)O)c(=O)c12 | 10% | 4% |
| CCc1cccc(CC)c1N(COC)C(=O)CCl | -24%&-13% | -13% |
| COc1ccc(CCNC(=O)C2=COCCO2)cc1 | -10% | / |
| COc1ccc(CN2C(=O)CSC2c2ccccn2)cc1 (stereo not given) | -6% | -10% |
| COc1ccc([N+](=O)[O-])cc1N/C(=N/S(=O)(=O)c1ccccc1)c1ccccc1 | -16% | -17% |
| COc1ccc(CCn2c3c(c(=O)[nH]c2=O)C(NC(=O)c2ccccc2F)(C(F)(F)F)C(=O)N3)cc1OC (stereo not given) | 9% | -4% |
| CCCCn1c(N)c(N(CCOC)C(=O)c2cc(=O)[nH]c3ccccc23)c(=O)[nH]c1=O | 0% | -12% |
| CC1=C(C(=O)Nc2cccnc2)C(c2ccccc2)n2nc(SCc3ccccc3)nc2N1 (stereo not given) | 4% | 1% |
| COc1ccccc1NC(=O)Nc1nc(CC(=O)Nc2cc(F)ccc2F)cs1 | -3% | i |
| O=C(Nc1ccc(N2CCOCC2)cc1)C1CCN(C(=O)OCc2ccccc2)CC1 | -15% | -22% |
| COc1cccc2c3c(c(=O)[nH]c12)CCC(C)(C)O3 | -23% | 0%[1.46 µM] |
| O=C(COC(=O)C(Cc1c[nH]c2ccccc12)NC(=O)c1ccc(Br)cc1)c1ccc(Cl)cc1 (stereo not given) | -6% | -11% |
| O=S(=O)(NCCC1CC1(Cl)Cl)c1ccc(Cl)cc1 (stereo not given) | -22% | -19% |
| COc1ccc(N(CC(=O)Nc2nc3ccc(C)cc3s2)S(=O)(=O)c2c(C)nn(C)c2C)cc1 | ? | -12% |
| COc1ccc(/C=C/c2cc(O)cc(O)c2)cc1 | 0% | i |
| CCOc1ccc(N2C(=O)C3ON(c4ccccc4)C(c4cccs4)C3C2=O)cc1 (stereo not given) | -11% | -1% |
